Screens from PubChem.
Marburg entry: qHTS for Inhibitors of binding or entry into cells for Marburg Virus; Potency, µM (titrated, usually from 49.2 µM), without a hit: at the top dose activity change, negative = inhibition, usual class: inhibitors; 18,000 tested, 6.5% active; Marburg virus pseudotype entry/binding inhibition, cell-based; control for the full effect not named in the record; many of its hits are not listed in these tables; AID 720532, 2013; active means well fitted inhibition curve with a large enough effect; inconclusive means small, poorly fitted or top-dose-only effect; inactive means no such curve, though single readings can be large or run the other way; tested in HEK293 cells; further: luciferase read-out
LASV entry inh: qHTS for Inhibitors of binding or entry into cells for Lassa Virus; Lassa virus pseudotyped entry inhibition, cell-based qHTS; control for the full effect not named in the record; many of its hits are not listed in these tables; AID 720533, 2013; 18,000 tested, 4.1% active; Potency, µM (titrated, usually from 49.2 µM), for inactives: top-dose activity change, negative = inhibition, actives largely listed as inhibitors; active = well fitted inhibition curve with a large enough effect; inconclusive = small, poorly fitted or top-dose-only effect; inactive = no such curve, though single readings can be large or run the other way; tested in HEK293 cells; further: luciferase read-out
Starred values were filed as active, the others as inactive; & = joins results of further samples; ! = repeats disagree; [ ] = another dose, or the depositor's remark. On the % scale 0 is the no-effect control and ±100 the full control effect; potency means the concentration at half of the fitted maximal effect. An unsorted share of the library. Share with any hit: about 7.3%.

What do the screens show for `C#Cc1ccccc1C[C@]1(C(=O)OC)C=C[C@H](C)[C@@H](c2ccccc2Br)N1C(=O)C(F)(F)F`?
Marburg entry: 7%[8.59 µM]; LASV entry inh: 0%[8.59 µM]

How did COc1cccc(C2=CC(=O)C(C(C)(C)C)N2C(C)(C)C)c1 (stereo unspecified) do in these assays?
Marburg entry: 10%; LASV entry inh: 16%

What do the screens show for `CC(=O)OC1C[C@]2(C)[C@@H](CC(O)C3[C@]4(C)CCC(O)C(C)[C@@H]4CC[C@]32C)/C1=C(/CCC=C(C)C)C(=O)O` (stereo partly specified)?
Marburg entry: -4%; LASV entry inh: 19%

What do the screens show for `CC(N)CCCC(C)(C)O` (stereo unspecified)?
Marburg entry: 8%; LASV entry inh: 9%

How did C=CCN1CCC2(C)c3cc(O)ccc3C[C@H]1[C@H]2C do in these assays?
Marburg entry: -11%; LASV entry inh: -6%

How did Cc1ccc(CN2C=CCCS2(=O)=O)cc1 do in these assays?
Marburg entry: 4%; LASV entry inh: -9%

What do the screens show for `Cc1ccc(-c2cc(C(F)(F)F)nn2-c2ccc(S(N)(=O)=O)cc2)cc1`?
Marburg entry: -2%&-22%; LASV entry inh: -16%&-26%

Results for CC(=O)c1ccsc1-c1c(C)cc2oc(=O)cc(-c3ccccc3)c2c1C ?
Marburg entry: -29%; LASV entry inh: inconclusive

How did O=c1c2ccccc2[se]n1-c1ccccc1 do in these assays?
Marburg entry: 22µM*!; LASV entry inh: 25µM*!

What do the screens show for `O=C(NC[C@@H]1CCCN2CCCC[C@H]12)c1cnn(-c2nccc(-c3cc4ccccc4o3)n2)c1C1CC1`?
Marburg entry: 11µM*; LASV entry inh: inconclusive

Results for COC(=O)[C@@H]1CC[C@H](C)[C@@H](c2ccc(C)cc2)N1C(=O)c1ccc(C=NOC[C@@H](O)COCc2ccco2)cc1 ?
Marburg entry: inconclusive

Results for O=c1cc(-c2cccc(-c3ccc(C(F)(F)F)cc3)c2)c2cc3c(cc2o1)OCO3 ?
Marburg entry: 0%; LASV entry inh: -2%

How did COc1ccc2c(c1)O[C@H](c1ccc3c(c1)OCO3)[C@@H](OC(=O)N[C@H](C)C1CCCCC1)C2=O do in these assays?
Marburg entry: 0%; LASV entry inh: -5%

What do the screens show for `C[N+]1(CC2COC(c3ccccc3)(c3ccccc3)O2)CCCCC1` (stereo unspecified)?
Marburg entry: -4%; LASV entry inh: -12%

How did Cc1cccc2c(N3CCCC3)nc(CNS(=O)(=O)c3ccccc3F)nc12 do in these assays?
Marburg entry: inconclusive; LASV entry inh: 5%

What do the screens show for `C[C@@]12CCC(OS(=O)(=O)O)C[C@@H]1CCC1C2CC[C@]2(C)C(=O)CCC12` (stereo partly specified)?
Marburg entry: 13%; LASV entry inh: -4%

How did COc1ccc2c(c1)O[C@@H](c1ccc3c(c1)OCO3)[C@H](O)C2=O do in these assays?
Marburg entry: 33%[activator]; LASV entry inh: 36%[activator]

Results for CCCCCC1=CC2=C(C(=O)OC)C(c3ccccc3)NC(=O)N2CC1 (stereo unspecified) ?
Marburg entry: 1%[8.59 µM]; LASV entry inh: -7%[8.59 µM]

Results for CC[C@H](C)[C@H](NC(=O)[C@H](Cc1ccc(O)cc1)NC(=O)[C@@H](NC(=O)[C@H](CCCN=C(N)N)NC(=O)[C@@H](N)CC(=O)O)C(C)C)C(=O)N[C@@H](Cc1cnc[nH]1)C(=O)N1CCC[C@H]1C(=O)O ?
Marburg entry: 7%; LASV entry inh: 1%

How did c1cncc([C@H]2CCCCN2)c1 do in these assays?
Marburg entry: -18%; LASV entry inh: 3%

The last 5 records of the part before open the next one:
What do the screens show for `C[C@@]12CCC(OS(=O)(=O)O)C[C@@H]1CCC1C2CC[C@]2(C)C(=O)CCC12` (stereo partly specified)?
Marburg entry: 13%; LASV entry inh: -4%

How did COc1ccc2c(c1)O[C@@H](c1ccc3c(c1)OCO3)[C@H](O)C2=O do in these assays?
Marburg entry: 33%[activator]; LASV entry inh: 36%[activator]

Results for CCCCCC1=CC2=C(C(=O)OC)C(c3ccccc3)NC(=O)N2CC1 (stereo unspecified) ?
Marburg entry: 1%[8.59 µM]; LASV entry inh: -7%[8.59 µM]

Results for CC[C@H](C)[C@H](NC(=O)[C@H](Cc1ccc(O)cc1)NC(=O)[C@@H](NC(=O)[C@H](CCCN=C(N)N)NC(=O)[C@@H](N)CC(=O)O)C(C)C)C(=O)N[C@@H](Cc1cnc[nH]1)C(=O)N1CCC[C@H]1C(=O)O ?
Marburg entry: 7%; LASV entry inh: 1%

How did c1cncc([C@H]2CCCCN2)c1 do in these assays?
Marburg entry: -18%; LASV entry inh: 3%

Results for CC[C@@H](O)C(C[C@@H](C)N(C)C)(c1ccccc1)c1ccccc1 ?
Marburg entry: 13µM*; LASV entry inh: inconclusive

How did COc1ccccc1C(=O)N[C@@H]1c2ccccc2C2(CCN(Cc3nc(C(C)C)cs3)CC2)[C@H]1O do in these assays?
Marburg entry: inconclusive; LASV entry inh: inconclusive

Results for COCCN1C(=O)N[C@@H](CCc2ccccc2)C(C(=O)OC)=C1C ?
Marburg entry: 2%; LASV entry inh: -7%

What do the screens show for `CC(CCC(=O)O)C1CCC2C3CC[C@H]4CC(O)CC[C@@]4(C)C3C=C[C@]12C` (stereo partly specified)?
Marburg entry: -1%; LASV entry inh: -10%

How did CCCC(=O)Nc1nc2c(ncn2[C@@H]2O[C@H]3COP(=O)(O)O[C@@H]3[C@@H]2OC(=O)CCC)c(=O)[nH]1 do in these assays?
Marburg entry: 2%&8%; LASV entry inh: -1%&-4%

Results for CN(C)c1cccc(CN2CCN(c3ccccc3)CC2)c1 ?
Marburg entry: -22%; LASV entry inh: -29%

What do the screens show for `C=CC1CC2C=CCOP(=O)(O1)O2` (stereo unspecified)?
Marburg entry: inconclusive; LASV entry inh: -12%

What do the screens show for `O=c1ncccn1[C@@H]1O[C@H](CO)C(O)[C@@H]1O` (stereo partly specified)?
Marburg entry: -4%; LASV entry inh: -3%

How did COC(=O)[C@@H](NC(=O)O[C@H]1C(=O)c2cc(OC)ccc2O[C@@H]1c1ccc(OC)c(Br)c1)C(C)C do in these assays?
Marburg entry: 2%; LASV entry inh: -11%

Results for Cc1c(C(=O)NCc2nccs2)cnn1-c1ncc2c(n1)-c1ccccc1CC2 ?
Marburg entry: 3%; LASV entry inh: -8%

What do the screens show for `O=C(O)C[C@@H]1NC(=O)[C@H](Cc2ccccc2)NC1=O`?
Marburg entry: 2%; LASV entry inh: -5%

Results for O=C(NCc1ccccc1)c1ccc(NC(=O)C2CCCC2)cc1 ?
Marburg entry: 17%; LASV entry inh: -22%

How did CCC(=O)N[C@@H]1c2ccccc2C2(CCN(Cc3cnc(N(C)C)s3)CC2)[C@H]1OC do in these assays?
Marburg entry: inconclusive; LASV entry inh: -10%

Results for O=[N+]([O-])c1ccc(CN2CC(N3CCC(c4ccccc4)CC3)CS2(=O)=O)cc1 (stereo unspecified) ?
Marburg entry: inconclusive

How did COC(=O)CC=C1c2ccc(F)cc2[C@@H](OC)[C@@H]1C do in these assays?
Marburg entry: -11%[8.59 µM]

Results for O=C(NN=C1C[C@@H](O)[C@H](O)[C@H]2[C@@H]3C(=O)N(C4CCCCC4)C(=O)[C@@H]3CC[C@@H]12)OCc1ccccc1 ?
Marburg entry: -13%[8.59 µM]; LASV entry inh: -16%[8.59 µM]

How did O=C(Nc1ccccc1)[C@@]12C[C@@H]1/C(=N/O)c1ccccc1O2 do in these assays?
Marburg entry: 0%; LASV entry inh: -29%

Results for O=C(c1cn(C2CCCN(Cc3cc(Cl)ccc3O)C2)nn1)N1CCCCC1 (stereo unspecified) ?
Marburg entry: -20%; LASV entry inh: -8%

What do the screens show for `NC(Cc1cc(I)c(Oc2cc(I)c(O)c(I)c2)c(I)c1)C(=O)O` (stereo unspecified)?
Marburg entry: -3%; LASV entry inh: -1%

How did C=NCc1cc2c(OC[C@@H](O)CNC(C)(C)C)cccc2[nH]1 do in these assays?
Marburg entry: inconclusive; LASV entry inh: 0%

Results for Cc1ccc(C(=O)Nc2cccc(-c3nc(CNC(=O)c4ccc(F)cc4Cl)c(C)o3)c2)s1 ?
Marburg entry: inconclusive; LASV entry inh: inconclusive

Results for CCOC(=O)CN1C(=O)[C@]2(OCCC=C[C@@H]2C)c2ccccc21 ?
Marburg entry: 1%[8.59 µM]; LASV entry inh: 11%[8.59 µM]

Results for O=c1c(-c2ccc(O[C@@H]3O[C@H](CO)[C@@H](O)[C@H](O)[C@H]3O)cc2)coc2cc(O)cc(O)c12 ?
Marburg entry: 45%; LASV entry inh: -15%

How did O=C1OC2C[C@H]1[C@@H]1C(=O)N(Cc3ccccc3)CCC1C2I (stereo partly specified) do in these assays?
Marburg entry: 4%; LASV entry inh: 10%

How did COc1ccc(N2C[C@H](C)[C@@H](CC(=O)Nc3ccc(Br)cc3)C2=O)cc1 do in these assays?
Marburg entry: inconclusive; LASV entry inh: inconclusive

How did CN(Cc1cnc2ccccn12)C(=O)c1cc(NC(=O)c2ccccc2)cc2ncn(C3CCCC3)c12 do in these assays?
Marburg entry: -5%; LASV entry inh: 4%

Results for C[C@H]1O[C@@H](O[C@H]2[C@@H](O)C[C@H](O[C@H]3[C@@H](O)C[C@H](O[C@H]4CC[C@@]5(C)[C@H](CC[C@@H]6[C@@H]5CC[C@]5(C)[C@@H](C7=CC(=O)OC7)CC[C@]65O)C4)O[C@@H]3C)O[C@@H]2C)C[C@H](O)[C@@H]1O ?
Marburg entry: 0.089µM*; LASV entry inh: inconclusive

What do the screens show for `C#CCCOC(=O)N1C2=NC(C(=O)OC)=C(C(=O)OC)[C@@H]3N(CC=C)c4ccccc4[C@]23C[C@H]1C(=O)OC`?
Marburg entry: 57%[activator][8.59 µM]; LASV entry inh: -8%[8.59 µM]

What do the screens show for `C=C[C@H]1C[C@H]2C=CCCOP(=O)(O2)O1`?
Marburg entry: inconclusive; LASV entry inh: 28%

Results for C=C(C)C(=O)C1CCCCC1 ?
Marburg entry: 12%; LASV entry inh: 2%

How did Cn1nnnc1SCC1=C(C(=O)O)N2C(=O)[C@@H](NC(=O)[C@H](O)c3ccccc3)[C@H]2SC1 do in these assays?
Marburg entry: -4%[17.8 µM]; LASV entry inh: -15%[17.8 µM]

How did C[N+]1(C)CCCCC1COC(=O)C(O)(c1ccccc1)c1ccccc1 (stereo unspecified) do in these assays?
Marburg entry: 1%; LASV entry inh: -4%

How did COc1cccc([C@@H]2Oc3ccc(Br)cc3C[C@H]2OC(=O)Nc2ccc(C)c(Br)c2)c1 do in these assays?
Marburg entry: -6%; LASV entry inh: 7%

How did CCOC(=O)C1=C(C)c2ccccc2N(C(=O)OC)C1(C)C(=O)OCC (stereo unspecified) do in these assays?
Marburg entry: inconclusive; LASV entry inh: inconclusive

How did CCCCCCC(C)OC(=O)COc1ccc(Cl)cc1Cl (stereo unspecified) do in these assays?
Marburg entry: 18%; LASV entry inh: -5%

How did O=C(O)C1CC(CCCP(=O)(O)O)CCN1 (stereo unspecified) do in these assays?
Marburg entry: -19%; LASV entry inh: -3%

What do the screens show for `CCCC[C@]12Cc3c(ccc4ccccc34)[C@H](O1)c1c(cc(C)oc1=O)O2`?
Marburg entry: 34%[activator][8.59 µM]; LASV entry inh: 5%[8.59 µM]

What do the screens show for `CCCN1Cc2cc(OC)ccc2-c2ccccc2S1(=O)=O`?
Marburg entry: inconclusive; LASV entry inh: inconclusive

What do the screens show for `NC(=O)[C@@H]1CCCN1C(=O)c1cc(NC(=O)c2ccccc2)cc2ncn(C3CCCC3)c12`?
Marburg entry: 11%; LASV entry inh: -1%

How did COCCNc1nc(-c2cccc(OC)c2)nc2ccccc12 do in these assays?
Marburg entry: -7%; LASV entry inh: 4%

Results for Cc1ncc2c(c1CNC(=O)c1ccc3c(c1)OCO3)CCN(C(=O)c1noc3c1CCCC3)C2 ?
Marburg entry: -17%; LASV entry inh: -21%

Results for NS(=O)(=O)c1ccc(NC(=O)CCC(=O)O)cc1 ?
Marburg entry: 0%; LASV entry inh: -13%

How did NC1C(O)OC(CO)[C@@H](O)[C@@H]1O[C@H]1O[C@@H](C(=O)O)C(O)C(O)C1O (stereo partly specified) do in these assays?
Marburg entry: 19%; LASV entry inh: -4%

Results for COCc1c(C(=O)N2CCN(C(C)C)CC2)cnn1-c1nccc(-c2cc(C)sc2C)n1 ?
Marburg entry: 3%; LASV entry inh: -19%

What do the screens show for `NCCC[C@@H](CC(=O)N[C@@H]1CCNC[C@H]1C(=O)N[C@H](CC(=O)N[C@@H](CCC(=O)O)CC(=O)O)Cc1ccccc1)NC(=O)C[C@H](CO)NC(=O)[C@@H]1CCCC[C@H]1N`?
Marburg entry: 4%; LASV entry inh: -2%

How did CN(C)C(=O)CCC(=O)NCC1Cc2cccc(-c3ccccc3C(F)(F)F)c2O1 (stereo unspecified) do in these assays?
Marburg entry: 5%; LASV entry inh: -21%

How did O=C(O)Cc1cccc(-c2cc(CCCCCCc3ccc(O[C@H]4O[C@H](CO)[C@@H](O)[C@H](O)[C@@H]4O)c(-c4cccc(CC(=O)O)c4)c3)ccc2O[C@H]2O[C@H](CO)[C@@H](O)[C@H](O)[C@@H]2O)c1 do in these assays?
Marburg entry: 0%; LASV entry inh: -6%

What do the screens show for `CN(N=O)c1ccc(O)c(O)c1`?
Marburg entry: inconclusive; LASV entry inh: 17%

Results for Cc1cc(O)c2c(c1O)C(=O)C(O)=C(O)C2=O ?
Marburg entry: 2%; LASV entry inh: -2%

Results for COC(=O)C(C(C)=O)C(=O)C(Cc1ccccc1)NC(=O)OCc1ccccc1 (stereo unspecified) ?
Marburg entry: -8%[8.59 µM]; LASV entry inh: -5%[8.59 µM]
